High-throughput results (PubChem BioAssay)
Menin MLL FP FL: menin-MLL binding inhibition, fluorescein peptide; 290,000 tested, under 10 active; FP activity change, % at 61.4 µM; Fluorescence polarization, fluorescein-MLL peptide displacement from menin; AID 1766; inconclusive = falling polarisation curve, or a change in total fluorescence; inactive = total fluorescence flat and polarisation flat or rising; no compound was filed as active; the % refers to the polarisation; negative = inhibition;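 further: % of control where 0% means no effect; inhibitors lower the polarisation; unlabelled MLL peptide was the positive control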
TRPML1 inh: blocks the human TRPML1 channel. Q9GZU1. TRPML1-inducible cells, Ca2+ dye fluorescence, FDSS; active compounds read low; inhibition of EC80 agonist-evoked calcium signal. activity change, negative = inhibition, % (test concentration not listed). actives 0.02% (n = 390,000); in the data active means activity change below about -50%; inconclusive means about -30% to -50%; inactive means above about -30%;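 further: stimulus is agonist 54-4 at its EC80 concentration; on the % scale 0 is the no-effect control and ±100 the full control effect; compound concentration not given in the record; the text of the record puts the active cut at -80%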
Target sequence (Q9GZU1 whole entry, looked up): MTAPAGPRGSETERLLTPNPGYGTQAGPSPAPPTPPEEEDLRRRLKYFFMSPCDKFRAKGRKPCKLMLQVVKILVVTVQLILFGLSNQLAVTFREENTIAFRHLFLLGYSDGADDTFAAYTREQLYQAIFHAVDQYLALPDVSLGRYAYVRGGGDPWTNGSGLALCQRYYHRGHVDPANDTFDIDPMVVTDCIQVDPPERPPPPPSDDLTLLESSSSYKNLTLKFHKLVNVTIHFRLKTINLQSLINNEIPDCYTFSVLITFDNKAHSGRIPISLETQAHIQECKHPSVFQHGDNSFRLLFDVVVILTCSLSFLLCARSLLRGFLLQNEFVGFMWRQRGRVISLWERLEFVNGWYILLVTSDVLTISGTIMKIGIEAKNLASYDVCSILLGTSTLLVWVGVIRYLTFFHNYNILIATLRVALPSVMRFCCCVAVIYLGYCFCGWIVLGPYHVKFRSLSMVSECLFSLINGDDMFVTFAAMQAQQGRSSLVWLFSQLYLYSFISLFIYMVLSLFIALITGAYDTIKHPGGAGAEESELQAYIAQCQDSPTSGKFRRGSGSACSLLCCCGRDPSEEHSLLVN
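TRPML1-DL cells, Tet-induced overnight (~16 h, 37 °C) at 1,500 cells/well, were loaded with Ca8 no-wash dye plus quencher for 45-90 min at room temperature. Compounds were pinned during FDSS kinetic reading; agonist 54-4 at EC80 (4 uM final) then added.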
gsp antag: antagonists of gsp mutant (McCune-Albright syndrome). actives 0.4% (n = 340,000). gsp-mutant cells, cAMP HTRF, 30 min; control for the full effect not named in the record. Potency, µM (series often up to 76.9 µM), without a hit: top-dose activity change, negative = inhibition, hits mostly inhibitors; active = falling curve of any shape with a large fitted effect; inconclusive = falling curve, mostly with a smaller effect; inactive = flat or rising curve; cell line not stated here;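 further: intracellular cAMP measured with PDE inhibitor Ro 20-1724 present during compound exposure; potency means the concentration at half of the fitted maximal effect; on the % scale 0 is the no-effect control and ±100 the full control effect; nearly all actives have a fitted effect of over 65% in size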
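Cells in G418 medium, seeded 16-24 h, 37C; buffer exchange to DPBS + 1 mM CaCl2, 0.5 mM MgCl2, 0.05% BSA; cpds in DMSO + […] (300 uM stock), 30 min 37C; HTRF cAMP detection.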
gsp ag: activates gsp, the McCune-Albright syndrome mutation; gsp mutant cells, cAMP HTRF, 30 min; control for the full effect not named in the record; Potency, µM (highest dose often 76.9 µM), inactives show top-dose activation (cAMP increase), usual class: activators; actives 0.13% (n = 340,000); AID 624287; active = well fitted activation curve with a large enough effect; inconclusive = small, poorly fitted or top-dose-only effect, or another doubt; inactive = no such curve, though single readings can be large or run the other way; cell line not stated here;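 further: phosphodiesterase inhibitor Ro 20-1724 added with compounds to block cAMP breakdown; potency means the concentration at half of the fitted maximal effect; nearly all actives have a fitted effect of over 60% in size; about a fifth of the inactives were tested at one dose only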
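Cells stably selected in G418 were plated at 2000/well, grown 16-24 hr, then given compounds in DMSO with the PDE inhibitor […] (300 uM solution added) for 30 min at 37C; cAMP was read by HTRF.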
ClpP mod: qHTS Assay for Activators of ClpP; purified B. subtilis ClpP, FRET peptide cleavage, 20 min; ATP-dependent Clp protease proteolytic subunit (Bacillus subtilis (strain 168)), P80244; actives 1.9% (n = 340,000); Potency, µM (doses to about 57.5 µM), for the others: at the top dose activity change, negative = active; active = well fitted falling curve with a large enough effect; inconclusive = small, poorly fitted or top-dose-only effect; inactive = no such curve, though single readings can be large or run the other way; further: potency means the concentration at half of the fitted maximal effect; the source files actives as falling curves though it sought activators and does not explain the sign; nearly all actives have a fitted effect of over 65% in size; many hits overshoot -100%
Target sequence (P80244 whole entry, looked up): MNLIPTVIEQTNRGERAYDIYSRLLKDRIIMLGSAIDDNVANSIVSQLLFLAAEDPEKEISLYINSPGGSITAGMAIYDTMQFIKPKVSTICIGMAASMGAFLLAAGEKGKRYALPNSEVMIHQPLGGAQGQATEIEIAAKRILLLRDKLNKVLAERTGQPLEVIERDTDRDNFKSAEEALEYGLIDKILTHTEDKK
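FRET quenching reversal measured ClpP activation: 10 microg/mL B. subtilis ClpP at pH 8 with the FRET-FV decapeptide, read at 430 nm after 320 nm excitation. The 20-min minus 0-min signal was scaled between DMSO/no-enzyme wells and ADEP (5.8 microM final).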
TRPML1 ag: activates the human TRPML1 channel; Q9GZU1; TRPML1-expressing cells, Ca2+ dye fluorescence, FDSS; host cell line not named in the record; reference of the full effect not given here; activation, % (concentration not given with the values); actives 0.12% (n = 410,000); AID 624414; in the data active = activation above about 50%; inconclusive = about 30% to 50%; inactive = below about 30%; further: 0% is about no effect; the text of the record puts the active cut at 80%
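Tetracycline-induced TRPML1-DL cells are seeded and incubated overnight before loading with a no-wash Ca2+ dye and quencher. Agonist activity is taken from the 110 s fluorescence read following compound pin-transfer on an FDSS, before EC80 54-4 challenge.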
* marks the source's active call; other numbers are inactive results; & = joins results of further samples; [ ] = remark or other dose. Random draw from the library; overall some 2.1% were active at least once.

Screening Cc1cccc(OCC(=O)Nc2c(C(=O)N3CCN(c4ccccc4)CC3)oc3ccccc23)c1 returned TRPML1 inh 0, ClpP mod -21% and TRPML1 ag -0.4.
For CC(=O)c1cccc(NC(=O)C2CCN(c3ncnc4c3nc3n4CCCCC3)CC2)c1 the results were TRPML1 inh 4, ClpP mod -0.9% and TRPML1 ag 2.2.
O=S(=O)(N1CCCCC1)N1CCN(c2ccccc2F)CC1 was read as Menin MLL FP FL 2.2, TRPML1 inh -20, gsp antag 5%, gsp ag -6%, ClpP mod 1.1% and TRPML1 ag -0.1.
`CC(c1ccccc1)n1c(SCC(=O)Nc2ccccc2)n[nH]c1=O` (configuration not stated) gave Menin MLL FP FL 0.5, TRPML1 inh -13, gsp antag -2%, gsp ag 7% and TRPML1 ag 2.2.
`CCCOc1cc(CN2CCCCC2)cc(C(C)=O)c1` gave Menin MLL FP FL -0.4, TRPML1 inh 12, gsp antag -1%, gsp ag 0%, ClpP mod -2.4% and TRPML1 ag 1.2.
Screening Cc1ccc(S(=O)(=O)NCC(=O)N(CC(=O)NC2CCCCC2)Cc2ccco2)cc1 returned Menin MLL FP FL 5.4, TRPML1 inh -9, gsp antag -5%, gsp ag -28%, ClpP mod -2.6% and TRPML1 ag 0.4.
O=C(N/N=C/c1ccc([N+](=O)[O-])o1)c1cccc(S(=O)(=O)N2CCOCC2)c1 was read as Menin MLL FP FL 2.9, TRPML1 inh -18, gsp antag -15%, gsp ag -6%[15.4 µM], ClpP mod 0.0% and TRPML1 ag -0.1.
Screening COC(=O)c1sccc1-c1ccc(/C=N/OCc2c(Cl)cccc2Cl)o1 returned Menin MLL FP FL -0.9, TRPML1 inh 10, gsp antag 7%, gsp ag -8%, ClpP mod 5µM* and TRPML1 ag -0.6.
Cc1ccc(S(=O)(=O)Nc2nonc2C)cc1 was read as Menin MLL FP FL 0.2, TRPML1 inh 7, gsp antag 1%, gsp ag 12%, ClpP mod -1.7% and TRPML1 ag 1.0.
For Cc1nn(Cc2ccc(Cl)c(Cl)c2)c(C)c1NC(=O)c1noc2c1CCCCC2 the results were Menin MLL FP FL 4.1, TRPML1 inh -12, gsp antag -12%, gsp ag -45%, ClpP mod -1.5% and TRPML1 ag -0.4.
Screening O=C(c1ccc(N2C(=O)C3C4c5ccccc5C(c5ccccc54)C3C2=O)cc1)N1CCOCC1 (configuration not stated) returned Menin MLL FP FL 2.3, TRPML1 inh -3, gsp antag -2%, gsp ag 6%, ClpP mod 0.4% and TRPML1 ag 1.1.
Screening CCOc1cc(C2C(C(=O)OC)=C(C)N=C3SCCC(=O)N32)ccc1OC(C)=O (configuration not stated) returned Menin MLL FP FL 0.9, TRPML1 inh -15, gsp antag 7%, gsp ag 25%, ClpP mod -3.1% and TRPML1 ag -0.9.

The list goes on, overlapping the part above by 4 compounds.
Cc1ccc(S(=O)(=O)Nc2nonc2C)cc1 was read as Menin MLL FP FL 0.2, TRPML1 inh 7, gsp antag 1%, gsp ag 12%, ClpP mod -1.7% and TRPML1 ag 1.0.
For Cc1nn(Cc2ccc(Cl)c(Cl)c2)c(C)c1NC(=O)c1noc2c1CCCCC2 the results were Menin MLL FP FL 4.1, TRPML1 inh -12, gsp antag -12%, gsp ag -45%, ClpP mod -1.5% and TRPML1 ag -0.4.
Screening O=C(c1ccc(N2C(=O)C3C4c5ccccc5C(c5ccccc54)C3C2=O)cc1)N1CCOCC1 (configuration not stated) returned Menin MLL FP FL 2.3, TRPML1 inh -3, gsp antag -2%, gsp ag 6%, ClpP mod 0.4% and TRPML1 ag 1.1.
Screening CCOc1cc(C2C(C(=O)OC)=C(C)N=C3SCCC(=O)N32)ccc1OC(C)=O (configuration not stated) returned Menin MLL FP FL 0.9, TRPML1 inh -15, gsp antag 7%, gsp ag 25%, ClpP mod -3.1% and TRPML1 ag -0.9.
`COc1ccc2oc(=O)c(C(=O)NCc3ccco3)cc2c1` gave Menin MLL FP FL -1.1, TRPML1 inh 0, gsp antag 10%, gsp ag -6%[15.4 µM] and TRPML1 ag 0.0.
CC(C)(C)c1ccc(NC(=O)C2CCCN(c3cnccn3)C2)cc1 (configuration not stated) was read as Menin MLL FP FL -1.7, TRPML1 inh 12&-4, gsp antag -3%, gsp ag 29%, ClpP mod -16%&-17% and TRPML1 ag 0.4&1.8.
For C=CCC(NC(C)c1ccccc1)c1ccco1 (configuration not stated) the results were Menin MLL FP FL 0.1, TRPML1 inh inconclusive, gsp antag 6%, gsp ag -12%, ClpP mod -2.3% and TRPML1 ag 0.4.
Cn1c(CNC(=O)OC(C)(C)C)nnc1SCC(=O)N1CCOCC1 was read as Menin MLL FP FL 2.0, TRPML1 inh 15, gsp antag 10%, gsp ag 3% and TRPML1 ag 1.5.
For CC(C)(C)c1ccc(S(=O)(=O)NCC(=O)Nc2ccc(-c3nc4ccccc4s3)cc2)cc1 the results were Menin MLL FP FL 6.9, TRPML1 inh 7, gsp antag 2%, gsp ag 0%, ClpP mod 5µM* and TRPML1 ag -0.7.
Screening Cc1nn2c3c(cnc2c1-c1ccc(Cl)cc1)C(=O)CC(c1ccco1)C3 (configuration not stated) returned Menin MLL FP FL 4.2, TRPML1 inh -4, gsp antag -7%, gsp ag 5%, ClpP mod -4.4% and TRPML1 ag 0.9.
OC(CN1CCN(c2ncc(C(F)(F)F)cc2Cl)CC1)c1ccccc1 (configuration not stated) was read as Menin MLL FP FL -4.7, TRPML1 inh 4, gsp antag 6%, gsp ag 18%, ClpP mod 1.5% and TRPML1 ag 2.3.
For CN(C)/C=C(/C(=O)c1ccc(Cl)cc1Cl)S(=O)(=O)c1ccccc1 the results were Menin MLL FP FL 3.8, TRPML1 inh 14, gsp antag -13%, gsp ag -28%, ClpP mod 0.2% and TRPML1 ag -0.7.
`O=C(COC(=O)C12CC3CC(CC(Cl)(C3)C1)C2)Nc1ccccc1` gave TRPML1 inh 5, gsp antag -9%, gsp ag -31%[inhibitor], ClpP mod 1.0% and TRPML1 ag 1.3.
Cc1ccc(S(=O)(=O)Nc2c(C)n(C)n(-c3ccccc3)c2=O)cc1 was read as Menin MLL FP FL -0.5&0.0, TRPML1 inh -15&-8, gsp antag 18%&-3%, gsp ag -5%[15.4 µM], ClpP mod 1.1%&-0.3% and TRPML1 ag -0.8&0.4.
For CC(C)Oc1ccc(C(=O)Nc2ccc(N3CCCCC3)cc2)cc1 the results were Menin MLL FP FL -0.6, TRPML1 inh -18, gsp antag 12%, gsp ag 0%, ClpP mod -3.1% and TRPML1 ag 0.6.
Screening Clc1ccc(C=NN2CCCCCC2)c(Cl)c1 returned TRPML1 inh -9, gsp antag 7%, gsp ag 10%[15.4 µM], ClpP mod 1.1% and TRPML1 ag 0.5.
`CC(=O)c1cccc(NC(=O)C2CCCCC2)c1` gave Menin MLL FP FL -1.4, TRPML1 inh 23, gsp antag 11%, gsp ag -20%, ClpP mod -0.5% and TRPML1 ag 0.0.
`O=C(COC(=O)c1ccc(Cl)c(S(=O)(=O)N2CCCC2)c1)NC1CCCCC1` gave Menin MLL FP FL -12, TRPML1 inh 45, gsp antag -19%, gsp ag -18%[15.4 µM] and TRPML1 ag 1.7.
Screening CC(CNC(=O)Cn1ccc2cc(S(=O)(=O)N3CCCC3)ccc21)c1ccccc1 (configuration not stated) returned Menin MLL FP FL 0.0, TRPML1 inh 9, gsp antag -6%, gsp ag 0% and TRPML1 ag 0.3.
`CC(=O)Nc1c(O)nc(SCC(=O)Nc2sc3c(c2C#N)CCCCCC3)[nH]c1=O` gave Menin MLL FP FL 1.2, TRPML1 inh 7, gsp antag -13%, gsp ag -7%, ClpP mod -0.9% and TRPML1 ag 1.8.
For CC1(NC(=O)Nc2cc([N+](=O)[O-])ccc2O)CCS(=O)(=O)C1 (configuration not stated) the results were TRPML1 inh 15, gsp antag 0%, gsp ag -2%, ClpP mod -0.2% and TRPML1 ag -0.6.
O=C(C1COc2ccccc2O1)N1CCN(c2ccc([N+](=O)[O-])cc2)CC1 (configuration not stated) was read as TRPML1 inh 15, gsp antag -3%, gsp ag -1%[15.4 µM], ClpP mod -12% and TRPML1 ag 0.4.
For COc1ccc(C(=O)Nc2ccc(Cl)cc2F)cc1S(=O)(=O)N1CCCC1 the results were TRPML1 inh 0, gsp antag -10%, gsp ag -16%, ClpP mod 0.1% and TRPML1 ag 1.1.
`CCN(CC(=O)Nc1ccc2c(c1)OCCO2)Cc1cc(=O)oc2cc(C)c(C)cc12` gave Menin MLL FP FL 5.6, TRPML1 inh 41, gsp antag -3%, gsp ag 3%, ClpP mod -0.4% and TRPML1 ag 0.8.
Screening O=C(CCN1CCN(c2ccccc2)CC1)N/N=C/c1ccc([N+](=O)[O-])o1 returned Menin MLL FP FL -0.9, TRPML1 inh 11, gsp antag 4%, gsp ag -10%[15.4 µM] and TRPML1 ag -0.2.
`O=C(C1CC(=O)N(c2ccc3c(c2)OCCO3)C1)N1CCN(c2ccccc2)CC1` (configuration not stated) gave Menin MLL FP FL 2.6, TRPML1 inh 1, gsp antag -5%, gsp ag -12%[15.4 µM], ClpP mod -5.6% and TRPML1 ag -0.7.
Screening COc1cc(-c2c(-c3ccc4c(c3)OCO4)noc2C)ccc1F returned Menin MLL FP FL 4.2, TRPML1 inh -8, gsp antag 2%, ClpP mod 0.1%&-8.0% and TRPML1 ag 1.8&-0.1.
`CC(C(=O)Nc1ccc2c(c1)OCO2)c1ccc([N+](=O)[O-])cc1` (configuration not stated) gave Menin MLL FP FL -3.4, TRPML1 inh -7, gsp antag -2%, gsp ag 5%[15.4 µM] and TRPML1 ag 13.
For Cc1ccc2sc(NC(=O)CN3C(=O)c4ccccc4C3=O)nc2c1C the results were Menin MLL FP FL 0.9, TRPML1 inh -12, gsp antag 1%, gsp ag -30%, ClpP mod -0.3% and TRPML1 ag -0.1.
`CC(C)(C)NC(=O)Cn1c(SCC(N)=O)nc2ccccc21` gave Menin MLL FP FL 3.7, TRPML1 inh 2, gsp antag 9%, gsp ag 10%, ClpP mod -0.7% and TRPML1 ag 0.8.
`COc1cc(NC(=O)COC(=O)CNC(=O)C23CC4CC(CC(C4)C2)C3)cc(OC)c1` gave TRPML1 inh -15, gsp antag -6%, gsp ag 3%, ClpP mod -0.8% and TRPML1 ag 0.5.
`CCC(=O)N1CCc2cc(Br)cc(S(=O)(=O)N3CCCC(C(=O)Nc4cccc(C)c4C)C3)c21` (configuration not stated) gave TRPML1 inh -17, ClpP mod -2.5% and TRPML1 ag -0.3.
`CC(NC(=S)NC(=O)c1cccs1)c1ccccc1` (configuration not stated) gave TRPML1 inh 25, gsp antag -2%, gsp ag -5% and TRPML1 ag 2.6.
